GLA inh pH 4.5 = qHTS Assay for Inhibitors of Human alpha-Galactosidase at pH 4.5; Alpha-galactosidase A (Homo sapiens), P06280; purified enzyme, 4-MU-alpha-Gal fluorescence, pH 4.5; activity change, negative = inhibition, % at 105 µM; 230,000 tested, under 10 active; inconclusive = small, poorly fitted or top-dose-only inhibition, or a rising curve; inactive = flat fitted curve, though single readings scatter; no compound was filed as active;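 further: 0% = full activity with enzyme and -100% = basal without enzyme; dose as in the result columns while the protocol names 77 µM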
Rango dissoc inh = qHTS Assay for Inhibitors of RanGTP induced Rango (Ran-regulated importin-beta cargo) - Importin beta complex dissociation; Potency, µM (top dose mostly 46.1 µM), for the others: at the highest dose activity change, negative = inhibition; Biochemical FRET Rango-importin beta, RanGTP-induced dissociation; Snurportin-1 (Homo sapiens) + GTP-binding nuclear protein Ran (Homo sapiens) + Importin …; hit rate 0.071% among 340,000; AID 540253, 2011; active means falling FRET ratio curve, often poorly fitted, with flat reads before Ran was added; inconclusive means other falling curves, or compound fluorescence or quenching; inactive means flat or rising ratio curve;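 further: potency means the concentration at half of the fitted maximal effect; % of control where 0% means no effect; nearly all actives have a fitted effect of over 45% in size; -100% = wells without RanGTP and RCC1; the record marks most hits as doubtful in a second field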
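Compounds sat 5 min at room temperature with 0.1 uM Rango biosensor plus 0.25 uM importin beta, then FRET pre-read. RanGTP-RCC1 (0.6 uM Ran, 2mM GTP, 0.2 uM RCC1) added for 45 min, and the CFP/YFP post-read measured blocked complex dissociation.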
Rango-impB inh = qHTS Assay for Inhibitors of Rango (Ran-regulated importin-beta cargo) - Importin beta complex formation; Importin subunit beta-1 (Homo sapiens), Q14974; Rango CFP/YFP FRET sensor + importin beta, 45 min; Potency, µM (highest dose often 92.2 µM), for the others: at the highest dose inhibition of complex formation; hit rate 0.031% among 340,000; AID 540263, 2011; active = rising FRET ratio curve, often small or poorly fitted; inconclusive = mostly compound fluorescence or quenching in the first reads; inactive = flat curves in all reads;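 further: potency means the concentration at half of the fitted maximal effect; 0% = DMSO wells and 100% = buffer wells lacking importin beta; nearly all actives have a fitted effect of over 15% in size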
Target sequence (Q14974 whole entry, looked up): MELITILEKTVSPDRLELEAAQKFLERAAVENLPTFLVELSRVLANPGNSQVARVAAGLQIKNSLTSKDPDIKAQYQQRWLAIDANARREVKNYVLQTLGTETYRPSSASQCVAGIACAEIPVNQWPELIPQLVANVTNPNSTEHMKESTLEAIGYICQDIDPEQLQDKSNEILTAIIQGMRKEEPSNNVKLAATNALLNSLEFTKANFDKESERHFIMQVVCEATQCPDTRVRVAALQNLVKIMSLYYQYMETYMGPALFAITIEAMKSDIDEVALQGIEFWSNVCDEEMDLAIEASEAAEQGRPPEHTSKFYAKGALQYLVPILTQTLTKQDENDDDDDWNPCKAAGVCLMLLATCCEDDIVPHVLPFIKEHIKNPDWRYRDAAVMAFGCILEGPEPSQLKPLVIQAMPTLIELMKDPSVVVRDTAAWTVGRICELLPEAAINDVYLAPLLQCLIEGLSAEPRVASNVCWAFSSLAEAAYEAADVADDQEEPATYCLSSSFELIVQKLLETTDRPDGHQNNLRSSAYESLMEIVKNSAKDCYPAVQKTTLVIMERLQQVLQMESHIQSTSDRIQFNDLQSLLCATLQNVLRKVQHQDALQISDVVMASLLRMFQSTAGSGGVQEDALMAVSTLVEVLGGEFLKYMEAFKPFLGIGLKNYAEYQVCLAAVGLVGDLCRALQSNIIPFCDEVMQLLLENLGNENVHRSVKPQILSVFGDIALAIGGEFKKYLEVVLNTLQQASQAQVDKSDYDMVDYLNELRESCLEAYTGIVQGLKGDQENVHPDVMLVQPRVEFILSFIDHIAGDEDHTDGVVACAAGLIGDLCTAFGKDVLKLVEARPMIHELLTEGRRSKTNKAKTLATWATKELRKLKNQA
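FRET biosensor (snurportin 1 IBB flanked by EYFP and cerulean), 50 nM, with compound 5 min, then 0.125 microM importin beta in PBS, 1 mM DTT, 0.02% Tween-20, 0.1% BSA. CFP/YFP ratio read after 45 min at room temperature; pre-read flags interference.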
miR-21 FLuc = qHTS Assay for Modulators of miRNAs and/orActivators of miR-21. HeLa miR-21 FLuc reporter, luciferase, 48 h. Potency, µM (doses to about 38.3 µM), for inactives: at the top dose reporter change, positive = more light. 340,000 tested, under 10 active. AID 2288, 2010; active = well fitted rising curve with a large enough effect; inconclusive = small, poorly fitted or top-dose-only effect; inactive = no such curve, though single readings can be large or run the other way;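 further: % of control where 0% means no effect; miR-21 action dims this reporter so a rising signal means less miR-21 action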
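Using DMEM plus 10% FBS, HeLa miR-21-FLuc cells are incubated with test compounds (final up to about 40uM) for 48 hours; firefly luciferase signal is then imaged following reagent-mediated lysis.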
* = called active by the depositor; u = inconclusive; x = not tested or not shown.

SMILES	GLA inh pH 4.5	Rango dissoc inh	Rango-impB inh	miR-21 FLuc
O=C(COC(=O)/C=C/c1ccc(S(=O)(=O)N2CCOCC2)cc1)Nc1ccc(F)c(F)c1F	x	-6.9%	5.6%	x
Cc1ccc2c(c1)CCCN2C(=O)NC1CCCCC1	8.4	-6.1%	-1.0%	-4.0%
CCCC(=O)Nc1nnc(SCC(=O)Nc2ccc3c(c2)OCO3)s1	4.6	2.9%	-3.3%	4.9%
COC(=O)CSc1nnc2n(C3CCCCC3)c(=O)c3c4c(sc3n12)CCCC4	-12.0	26.4%	-5.8%	-3.4%
CC(NCC(=O)Nc1cc(S(=O)(=O)N2CCOCC2)ccc1N1CCOCC1)c1ccco1 (stereo unspecified)	x	-4.7%	3.1%	x
C=CCNC(=S)NNc1nc2c(c(=O)[nH]1)C1(CCCC1)Cc1ccccc1-2	6.1	-11.8%	-0.4%	6.8%
O=C(Nc1ccc(C(=O)NN2C(=O)c3ccccc3C2=O)cc1)c1ccccc1	6.7	5.9%	4.3%	1.0%
CCn1c(COc2ccccc2Cl)nnc1SCC(=O)Nc1ncccc1C	-0.2	-6.1%	0.8%	-9.6%
Cc1ccc(NCc2n[nH]c(=S)n2Cc2ccccc2)cc1Cl	-1.8	0.2%	-3.5%	9.1%
CCCCN(C)C1CCN(C(=S)Nc2ccc(OCC)cc2)CC1	-15.8	-5.9%	-4.4%	-2.3%
Cn1nc([N+](=O)[O-])nc1N1CCN(c2ccc(F)cc2)CC1	0.8	-0.5%	-3.3%	-1.3%
Cc1c(Cl)cccc1Nc1nc(N)nc(CSCCO)n1	4.5	1.7%	3.6%	-16.9%
COc1ccc(C(=O)NC(=S)Nc2ccc(S(N)(=O)=O)cc2)cc1	0.0	-4.1%	u	-15.6%
COc1ccc(OCC(O)CN2CCC(CN3C(=O)c4cccc5cccc(c45)C3=O)CC2)cc1 (stereo unspecified)	-14.9	-7.0%	6.4%	-10.9%
COc1ccc(OC)c(NC(=O)CN2CCC(NC(=O)c3ccccc3C)CC2)c1	x	0.5%	5.2%	4.6%
CN(C)c1cccc(C(=O)Nc2ccc(S(=O)(=O)Nc3nccs3)cc2)c1	x	-11.5%	-4.9%	x
CCCC(=O)N(Cc1cc(=O)[nH]c2ccccc12)c1cccc(C)c1	x	13.7%	5.3%	-2.3%
CCCOC(=O)C1=C(C)OC23OC(N)=C(C#N)C12C(=O)c1ccccc13 (stereo unspecified)	-0.4	-6.8%	1.6%	-5.7%
COC(=O)c1c(C)oc(C)c1S(=O)(=O)NCc1ccco1	-1.2	-6.3%	0.7%	-0.1%
CC(C)C(Nc1ccc(C(F)(F)F)cc1[N+](=O)[O-])C(=O)O (stereo unspecified)	-2.2	34.6%	-2.1%	-1.5%
N#Cc1ccc(-c2ccc(OCC(O)CN3CCCCC3)cc2)cc1 (stereo unspecified)	x	4.7%	-3.5%	-17.0%
CCCCNC(=O)Cn1c(=O)c2c(ncn2CCC(C)C)n(Cc2ccccc2)c1=O	x	-7.4%	-1.0%	-2.0%
O=C(NC1CCCC1)C(c1ccncc1)N(Cc1ccccc1)C(=O)c1ccc(-c2ccccc2)[nH]1 (stereo unspecified)	-14.6	-9.2%	-2.7%	3.4%
Cc1cccc(-c2nnc(-c3ccccc3)o2)c1	-11.3	1.5%	6.4%	-46.7%
CN(CC(=O)N1CCN(c2ccc(F)cc2)CC1)S(=O)(=O)c1ccc(F)cc1	-6.8	-10.5%	-2.1%	-15.8%

Ordered by heavy-atom count (largest number first): some entries from above.
SMILES	GLA inh pH 4.5	Rango dissoc inh	Rango-impB inh	miR-21 FLuc
O=C(Nc1ccc(C(=O)NN2C(=O)c3ccccc3C2=O)cc1)c1ccccc1	6.7	5.9%	4.3%	1.0%
N#Cc1ccc(-c2ccc(OCC(O)CN3CCCCC3)cc2)cc1 (stereo unspecified)	x	4.7%	-3.5%	-17.0%
Cc1ccc(NCc2n[nH]c(=S)n2Cc2ccccc2)cc1Cl	-1.8	0.2%	-3.5%	9.1%
Cc1cccc(-c2nnc(-c3ccccc3)o2)c1	-11.3	1.5%	6.4%	-46.7%

Next compounds follow:
SMILES	GLA inh pH 4.5	Rango dissoc inh	Rango-impB inh	miR-21 FLuc
COc1ccc2nc(SCC(=O)Nc3ccc(S(=O)(=O)N4CCCC4)cc3)c(C#N)cc2c1	0.5	-27.8%	u	10.4%
CC(=O)c1ccc(S(=O)(=O)N2CCC(NC(=O)c3ccccc3)CC2)cc1	x	4.9%	4.5%	-0.1%
Cc1ccc(CN2CC(C(=O)N(C)CC(=O)Nc3cccc(F)c3)CC2=O)cc1 (stereo unspecified)	x	14.8%	-1.9%	-1.2%
O=C(Cc1ccc(NC(=O)C2CCN(C(=O)C3CCC3)CC2)cc1)Nc1ccc(C(=O)N2CCOCC2)cc1	x	0.1%	2.4%	x
CCCC(=O)Nc1ccc(C(=O)NCCc2ccc(F)cc2)cc1	-0.4	28.5%	-0.3%	-27.9%
CC1=CC2=NC(=O)/C(=C\c3ccc(-c4ccc(Cl)cc4)o3)C(=N)N2O1	-1.7	x	x	-26.1%
C/C(CC(=O)Nc1c(C)cc(C)cc1C)=N\NC(=O)OC(C)(C)C	1.3	21.2%	-5.6%	-31.5%
COc1cc2cc(CCOC(=O)c3ccco3)oc(=O)c2cc1OC	x	1.9%	-1.8%	x
C/C(=N\NC(=O)c1nnn(-c2nonc2N)c1-c1ccccc1)c1ccccc1O	x	u	u	u
COC(=O)c1ccccc1NCCO	u	0.6%	1.5%	-0.7%
COc1ccc(C2=NN3C(=O)c4c(ccc(OC)c4OC)C3C2)cc1 (stereo unspecified)	2.7	4.9%	0.1%	-8.5%
CCCCOc1ccc(Cl)cc1Nc1nc(NCCO)nc(N2CCCC2)n1	x	8.9%	6.4%	x
CCSc1nnc(NC(=O)c2cc(-c3ccccc3O)n[nH]2)s1	3.4	u	5.4%	-7.1%
CN1CCN(C(=O)C2=C[C@H](c3ccc(Br)cc3)C[C@H](OCCCCO)O2)CC1	10.8	0.9%	-1.5%	-1.4%
Cc1cccc(C)c1NC(=O)CN(C)C(=O)C1CCN(c2ncnc3sc(C)c(C)c23)CC1	x	15.7%	-9.8%	x
COc1ccc(Cl)cc1NC(=O)CN1C(=O)CCS(=O)(=O)c2ccccc21	-2.7	-7.4%	4.7%	-5.7%
CC[C@]1(C(=O)OC)[C@H]2C(=O)N(Cc3ccccc3)C(=O)[C@H]2[C@H]2CN=C(SCc3ccc(C)cc3)N21	x	7.2%	4.5%	x
CSCCC(NC(=O)c1ccccc1Br)C(=O)N1CCC(C)CC1 (stereo unspecified)	-0.2	6.9%	-1.1%	-1.8%
C/C(Cn1cnc([N+](=O)[O-])n1)=N\NC(=O)c1ccc(F)cc1	5.2	12.1%	-2.1%	-28.3%
COc1ccccc1NC(=S)NC(=O)/C=C/c1cccs1	-11.0	-0.5%	-0.5%	-2.7%
Cc1cnn(-c2cc(N/N=C/c3ccc(F)cc3)ncn2)c1	-11.1	u	1.5%	-2.5%
CN(c1ccccc1)S(=O)(=O)c1cccc(C(=O)OCC(=O)NCc2ccc3c(c2)OCO3)c1	-6.1	-2.2%	-2.9%	-0.8%
CCOCCCNC(=O)CN1C(=O)/C(=C/c2ccccc2)Sc2ccccc21	-1.0	-13.9%	u	-6.3%
CCCOc1cccc(-c2cc(C(=O)NN)c3ccccc3n2)c1	-2.8	-7.6%	0.0%	-0.6%
O=C(O)c1cc(N/N=C/C=C/c2ccccc2[N+](=O)[O-])ccc1Cl	-1.5	11.9%	-3.6%	-71.6%

Compound profiles (already shown). Order of screens: GLA inh pH 4.5, Rango dissoc inh, Rango-impB inh, miR-21 FLuc
COc1cc2cc(CCOC(=O)c3ccco3)oc(=O)c2cc1OC across the screens: x, 1.9%, -1.8%, x
C=CCNC(=S)NNc1nc2c(c(=O)[nH]1)C1(CCCC1)Cc1ccccc1-2 across the screens: 6.1, -11.8%, -0.4%, 6.8%

Some of the compounds tested. The share of hits here may be higher or lower than overall.
